# High-throughput results: PubChem BioAssay, National Center for Advancing Translational Sciences (NCATS)
# Six1-Eya2 inh: inhibitors of human Six1/Eya2 interaction | 360,000 tested, 0.56% active | Q15475+O00167 | activity change, % (test concentration not listed) | AlphaScreen GST-Six1/His-Eya2 binding, biochemical; hits give low values; control for the full effect not named in the record | AID 651725; in the data active = activity change below about -65%; inconclusive = about -30% to -65%; inactive = above about -30%; note: % is set by controls: 0 for no effect and ±100 for the full control effect; compound concentration not given in the record
#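 Six1/Eya2 binding was read as AlphaScreen signal after compounds were pinned into GST-Six1 plus His-tagged Eya2 (5X stock 250/500 nM) in pH 8.0 Tris/NaCl/TCEP buffer, beads added, then incubated 1 h, 37 C, dark.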
# PINK1 modulator: modulators of PINK1 expression. PINK1 immunofluorescence, high-content cytometry, 24 h. AID 624263. 410,000 tested, 0.2% active. Potency, µM (highest dose often 76.6 µM), for inactives: at the top dose activation (PINK1 increase), usual class: activators; active = well fitted activation curve with a large enough effect; inconclusive = small, poorly fitted or top-dose-only effect; inactive = flat fitted curve, though single readings scatter; cell line not stated here;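 note: potency is the fitted concentration of half-maximal effect; % of control where 0% means no effect; nearly all actives have a fitted effect of over 65% in size; a mitochondrial uncoupler was the plate control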
#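 Cells are seeded, rested 12 hours, then given compound at five concentrations or DMSO for 24 hours. After fixation, blocking and antibody staining, PINK1 amount and mitochondrial localization are scored; CCCP serves as control.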
# TRPML1 agonist: agonists of human TRPML1 channel | TRPML1-expressing cells, Ca2+ dye fluorescence, FDSS; host cell line not named in the record; reference of the full effect not given here | activation, % (concentration not given with the values) | 410,000 tested, 0.12% active | AID 624414; in the data active = activation above about 50%; inconclusive = about 30% to 50%; inactive = below about 30%; note: 0% is about no effect; the text of the record puts the active cut at 80%
# Target sequence (Q9GZU1 whole entry, looked up): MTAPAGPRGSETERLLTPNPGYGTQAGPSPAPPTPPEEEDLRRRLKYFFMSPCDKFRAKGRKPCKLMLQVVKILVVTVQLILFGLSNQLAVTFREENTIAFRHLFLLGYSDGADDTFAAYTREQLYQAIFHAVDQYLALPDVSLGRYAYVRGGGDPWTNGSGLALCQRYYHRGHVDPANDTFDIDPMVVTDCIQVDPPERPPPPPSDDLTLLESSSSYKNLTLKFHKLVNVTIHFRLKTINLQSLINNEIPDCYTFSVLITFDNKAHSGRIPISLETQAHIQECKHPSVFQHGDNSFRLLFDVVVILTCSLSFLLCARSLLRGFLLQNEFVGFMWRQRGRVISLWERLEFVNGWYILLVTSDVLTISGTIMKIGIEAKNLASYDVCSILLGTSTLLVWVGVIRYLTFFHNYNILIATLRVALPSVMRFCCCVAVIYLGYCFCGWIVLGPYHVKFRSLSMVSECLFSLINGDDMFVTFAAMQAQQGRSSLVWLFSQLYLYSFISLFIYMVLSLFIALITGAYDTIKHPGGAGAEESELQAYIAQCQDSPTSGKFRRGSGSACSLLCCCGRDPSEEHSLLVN
#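 Tet-induced TRPML1-DL cells, 1,500 per well, cultured overnight, were loaded with a no-wash Ca2+ dye for 45–90 min. Calcium fluorescence was recorded on the FDSS for 110 s after compound addition, before the EC80 agonist (4 uM 54-4) was added.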
# D2 agonist: human D2 receptor agonism in beta-arrestin assay | P14416 | DiscoveRx PathHunter D2 beta-arrestin, luminescence, 90 min; 100% = 57 uM dopamine signal | activation, % (no concentration beside the values) | 360,000 tested, 0.084% active | AID 624465; in the data active = activation above about 40%; inconclusive = about 15% to 40%; inactive = below about 15%; note: compound concentration not given in the record; the text of the record calls up to 30% inactive
# Target sequence (P14416 whole entry, looked up): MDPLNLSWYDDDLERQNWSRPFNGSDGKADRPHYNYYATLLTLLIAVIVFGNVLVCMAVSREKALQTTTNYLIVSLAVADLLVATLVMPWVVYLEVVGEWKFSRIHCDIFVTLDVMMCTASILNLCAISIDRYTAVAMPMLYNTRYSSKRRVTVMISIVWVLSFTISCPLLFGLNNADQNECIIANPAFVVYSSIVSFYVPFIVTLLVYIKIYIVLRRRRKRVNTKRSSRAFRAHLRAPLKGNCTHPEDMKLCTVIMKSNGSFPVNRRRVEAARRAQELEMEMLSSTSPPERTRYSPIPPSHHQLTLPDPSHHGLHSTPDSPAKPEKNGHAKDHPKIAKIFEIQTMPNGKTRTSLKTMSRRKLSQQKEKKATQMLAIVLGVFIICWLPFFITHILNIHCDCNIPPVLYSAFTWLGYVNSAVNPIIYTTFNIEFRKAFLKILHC
#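 DiscoveRx PathHunter D2 beta-arrestin cells (2,100/well) attached overnight, then compound-stimulated 90 min at 37 C in HBSS/10 mM HEPES/0.1% Tween-20 buffer; beta-galactosidase complementation read by luminescence after 1 h at ambient temperature. Dopamine 57 uM final (EC100) as control.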
# TRPML1 blocker: human mucolipin-1 channel inhibition. TRPML1-inducible cells, Ca2+ dye fluorescence, FDSS; hits give low values; inhibition of EC80 agonist-evoked calcium signal. Q9GZU1. 390,000 tested, 0.02% active. activity change, negative = inhibition, % (test concentration not listed); in the data active means activity change below about -50%; inconclusive means about -30% to -50%; inactive means above about -30%;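 note: stimulus is agonist 54-4 at its EC80 concentration; % is set by controls: 0 for no effect and ±100 for the full control effect; compound concentration not given in the record; the text of the record puts the active cut at -80%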
#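 TRPML1-DL cells, Tet-induced overnight (~16 h, 37 °C) at 1,500 cells/well, were loaded with Ca8 no-wash dye plus quencher for 45-90 min at room temperature. Compounds were pinned during FDSS kinetic reading; agonist 54-4 at EC80 (4 uM final) then added.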
# D2 PAM: positive allosteric modulators of human D2 dopamine receptor; P14416; DiscoveRx D2 beta-arrestin cells, luminescence, 90 min; 100% = 57 uM dopamine signal; potentiation, % (no concentration beside the values); 360,000 tested, 0.23% active; active = potentiation of 50% or more; inconclusive = 30% to 50%; inactive = 30% or less;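 note: compound concentration not given in the record; tested on top of an EC20 dose of dopamine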
#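 PathHunter D2 cells, attached overnight at 37 deg C, received compound in DMSO plus dopamine at EC20 (50 nM final) for 90 min at 37 deg C. Beta-arrestin recruitment was read as luminescence after 1 h with detection reagent at ambient temperature.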
# * = called active by the depositor; ? = inconclusive; nt = not tested or not shown; [ ] = dose if it differs, or a comment.
compound,Six1-Eya2 inh,PINK1 modulator,TRPML1 agonist,D2 agonist,TRPML1 blocker,D2 PAM
CC(C)CC1C(=O)N(Cc2cn(CCC3OCCCO3)nn2)CCS(=O)(=O)N1Cc1ccc(-c2ccncc2)cc1 (stereo unspecified),-15.6,9.4%,0.3,-1.2,18.6,-1.7
O=C(CCC(=O)NC1CCCCCCC1)Nc1nnc(C(F)(F)F)s1,-0.7,7.7%[38.3 µM],0.2,0.7,-3.0,-10.0
O=C(NCCc1cccc(F)c1)[C@@H]1CSC2c3ccccc3C(=O)N21 (stereo partly specified),1.9,-1.3%,-1.0,-1.3,10.8,11.1
Cc1cc(C(=O)N2CCC2(C)C(=O)NS(=O)(=O)c2ccc(Cl)cc2)nn1C (stereo unspecified),5.6,1.6%,-0.2,-5.7,nt,-0.3
CCC1CCCCN1C(=O)COC(=O)c1ccc(S(=O)(=O)N2CCOCC2)cc1 (stereo unspecified),8.5,3.1%,-0.9,-0.4,19.5,-3.5
O=C(NCc1ccco1)c1ccc2c(c1)OCCO2,-3.8,-0.3%,1.4,-4.0,34.8,-13.0
CCCOc1ccc(Br)cc1/C=N/NC(=O)c1cc(OC)c(OC)c(OC)c1,-0.9,7.1%,0.0,-2.4,2.3,-5.4
COc1ccc(C(=O)CSc2nc(C)cc(=O)[nH]2)cc1C,12.4,-0.7%,0.6,1.8,5.2,-3.3
CC(O)CNCCOc1ccccc1-c1ccccc1 (stereo unspecified),10.0,-2.4%,0.1,1.8,8.1,-11.7
COc1ccc(CCNC(=O)c2ccc3c(c2)nc2n3CCOC2)cc1OC,nt,0.5%,-0.7,nt,-11.2,nt
Brc1ccc2c(c1)NC(c1cccnc1)=NC(c1ccccc1)=N2,nt,0.3%,1.2,nt,10.7,nt
COCCNC(=O)c1ccc(C)cc1C,10.4,-0.4%,0.1,-3.3,-19.6,-4.8
CCc1c(C)sc(NC(=O)c2ccco2)c1C(=O)N1CCOCC1,-3.3,5.6%[38.3 µM],-0.1,2.1,-15.2,0.1
O=C(O)CCC(=O)N1CCc2cc(S(=O)(=O)NCCc3ccc(Cl)cc3)ccc21,-11.1,2.3%,0.4,1.8,0.7,-6.4
CCCCOc1ccc(C(=O)Nc2ccc(N3CCN(C(C)=O)CC3)cc2)cc1,0.5,1.3%,-0.5,-1.4,19.6,-5.5
Cc1ccc(CCNC(=O)CCn2nc(-c3ccc(C)cc3)ccc2=O)cc1,nt,1.9%,2.5,nt,-1.3,nt
CCOc1ccc(/C=N/NC(=O)c2ccccc2C)cc1CN1CC2CC(C1)c1cccc(=O)n1C2 (stereo unspecified),0.6,2.4%,-0.2,1.7,11.2,-3.5
Cc1ccccc1N1CC(C(=O)N2CC(C)OC(C)C2)CC1=O (stereo unspecified),11.6,2.5%,0.0,-4.0,-8.7,-1.5
Cc1sc(NC(=O)c2cccs2)c(C(=O)OC(C)C)c1C,18.3,0.9%,1.7,-6.0,30.0,-2.0
Cc1ccc(-n2cccc2/C=C2/C(=N)N3C(=NC2=O)SN=C3S(C)(=O)=O)cc1Cl,-1.7,5.3%,1.5,-3.1,15.0,3.9
COC(=O)[C@]12CCCCC=C1N(Cc1cccc3ccccc13)C(=O)[C@H](CC(=O)NCC13CC4CC(CC(C4)C1)C3)C2,-0.4,1.4%,0.5,nt,nt,nt
Cc1ccc(Cl)cc1Nc1nc(-c2sc(NC(=O)C(C)(C)C)nc2C)cs1,10.8,2.3%,0.3,-3.3,-6.9,-14.7
CCOC(=O)C1=C(c2ccccc2)c2ccc(OC)cc2N(S(=O)(=O)C(F)(F)F)C1C(=O)OCC (stereo unspecified),1.8,-0.5%,0.1,2.5,23.2,nt
O=C1NC(=Nc2ccccc2)/C(=C/c2ccco2)S1,-6.6,13.8%,0.6,-1.6,-17.8,-5.8
COc1cccc(C(=O)CSc2nccn2C)c1,-3.1,-0.8%,0.0,-3.0,-5.9,-0.7

# Next section:
compound,Six1-Eya2 inh,PINK1 modulator,TRPML1 agonist,D2 agonist,TRPML1 blocker,D2 PAM
O=C(NCc1nnc(SCC(=O)N2CCN(c3ccccc3)CC2)o1)c1c(F)cccc1F,7.1,2.2%,0.5,8.8,12.9,16.6
OCC[C@H]1C[C@H](O)[C@@H](O)[C@@]2(Cc3ccccc3CO2)O1,8.5,-1.2%,-0.5,-2.2,0.2,-4.8
O=C1NC(=S)NC1(c1ccccc1)c1ccccc1,-1.7,-0.9%,0.1,-2.7,-5.2,-5.5
CCc1nc2ccccc2c(C(=O)OCC(=O)NCc2ccc3c(c2)OCO3)c1C,-3.7,1.1%,4.9,1.4,41.7,-0.8
Cn1ccnc1SCCNC(=O)CCc1nnc(CCCCc2ccccc2)o1,-3.5,0.4%,-0.4,3.4,-6.5,1.6
CNC(=O)C(=O)Nc1cc2c3c(c1)CCN3C(=O)CC2,-9.7,0.1%,-0.2,6.4,4.3,-46.7
CCc1ccccc1NC(=O)C1CCCN(c2nccc(C)n2)C1 (stereo unspecified),5.3,0.3%,-0.7,-4.6,4.6,0.0
O=C(NC12CC3CC(CC(C3)C1)C2)c1ccc([N+](=O)[O-])o1,-1.7,0.0%,0.6,3.8,-4.5,1.0
CC(C)C(NC(=O)c1ccc(C(C)(C)C)cc1)C(=O)N1CCCC1 (stereo unspecified),-1.1,0.9%,-0.3,-4.8,6.0,-11.5
Cc1ccc(SCC(=O)OC(C)C(=O)NCc2ccccc2)cc1C (stereo unspecified),0.8,1.5%,1.6,-3.8,-2.4,-64.6
O=C(NCc1cccs1)c1nn2cccnc2c1Cl,-8.1,0.4%,1.8,-8.1,-2.0,12.5
CC(=O)Nc1nc2n(n1)C(c1ccc(Cl)cc1)C=C(C)N2 (stereo unspecified),-11.6,-0.2%,-0.7,-2.0,-12.3,-11.9
Cc1ccc(S(=O)(=O)CCC(=O)Nc2ccccc2Cl)cc1,-2.5,2.3%,0.2,-7.0,-17.6,-1.4
COc1ccc(NC(=O)C2CCC(N3C(=O)C4C5C=CC(C5)C4C3=O)CC2)cc1 (stereo unspecified),3.7,0.8%,-0.6,-2.4,-8.7,-27.4
CCn1cc(SCC(N)=O)c2ccccc21,3.7,-0.9%,-0.5,-3.4,1.2,-4.5
COc1ccc(N(CC(=O)Nc2cc(OC)cc(OC)c2)S(=O)(=O)c2c(C)noc2C)cc1,nt,0.3%,1.5,nt,14.4,nt
CCc1cccc(NC(=O)C2CCC(CNS(=O)(=O)c3csc(C(N)=O)c3)CC2)c1 (stereo unspecified),nt,5.1%,-1.2,nt,3.1,nt
O=S(=O)(c1ccccc1)N1N=C(c2cccs2)CC1c1ccc(Br)cc1 (stereo unspecified),-0.7,1.8%,-0.4,-1.3,-6.2,-14.0
Cc1ccc(S(=O)(=O)c2c(C)nn(C(C)(C)C)c2OC(=O)C2CCCC2)cc1,8.5,?,0.1,-1.9,-5.4,-26.8
OCCOCCn1c(CCNc2nc(-c3ccc(F)cc3)cs2)nc2cc(C(F)(F)F)ccc21,-4.6,1.6%,-0.1,0.8,-9.3,-6.2
Cc1cc(-c2ccc(S(=O)(=O)N3CCN(c4ccc(Cl)cc4)CC3)s2)on1,nt,2.0%,0.5,nt,-5.1,nt
Cc1ccc2nc(SCC(=O)NC(=O)NCc3ccco3)[nH]c2c1,-1.3,1.2%,1.1,-7.1,-5.3,-9.5
Oc1ccc(-c2cn3ccccc3n2)cc1,5.2,-0.6%,0.8,2.4,-7.1,9.0
COc1cccc(C(=O)Nc2c(F)c(F)c(F)c(F)c2F)c1,2.1,5.6%[38.3 µM],-0.6,0.5,1.8,-1.5
COc1ccc(C(=O)NCC2OCCc3ccccc32)cc1 (stereo unspecified),4.1,0.3%,-1.1,-0.8,2.7,-12.6

# Other entries:
compound,Six1-Eya2 inh,PINK1 modulator,TRPML1 agonist,D2 agonist,TRPML1 blocker,D2 PAM
[O-][n+]1onc2c3cc(-c4ccccc4)nnc3ccc21,-3.6,1.3%,-1.7,7.6,-5.9,52.7*
O=C(CSc1nc(-c2ccccc2)cc(=O)[nH]1)Nc1ccc(F)c(F)c1,1.4,0.8%,2.4,-5.3,53.5,-11.5
CCOc1cc(CNc2ccc(CNc3ncn[nH]3)cc2)ccc1OCc1ccccc1,-21.9,2.6%,1.4,-0.4,2.9,-7.3
CCOc1ccccc1CNC(=O)Cn1ccc2cc(S(=O)(=O)N3CCC(C)CC3)ccc21,-9.9,0.1%,8.5,2.4,-6.5,-6.8
COc1ccccc1N(C)S(=O)(=O)c1ccc(C(=O)OCC(=O)N(C(C)C)C(C)C)cc1,-3.2,-1.7%,-0.6,0.0,-0.8,0.1
CNC(C)C#Cc1ccc2oc3cccc(OC)c3c(=O)c2c1 (stereo unspecified),-8.2,2.6%,0.0,-1.7,-4.5,-7.1
COC(=O)C1SCCN1S(=O)(=O)c1ccc(Cl)cc1 (stereo unspecified),7.5,0.5%,-0.6,-5.6,0.2,-2.7
CC(C)Cn1c(N)c(C(=O)NCC2CCCO2)c2nc3ccccc3nc21 (stereo unspecified),50.2,-2.6%,-0.6,-1.5,14.0,?
CC(=O)c1cccc(NC(=O)NC(C)c2ccc3c(c2)OCO3)c1 (stereo unspecified),4.3,-1.1%,0.6,-1.9,5.7,-27.5
CCCc1nn(C)c2c(=O)[nH]c(-c3ccccc3OCC)nc12,-0.6,0.1%,-0.1,0.4,-19.2,17.2
COc1ccccc1N1CCN(C(=O)CCc2ccc(S(=O)(=O)NC(C)C)cc2)CC1,7.3,1.7%,-0.9,0.7,-11.4,10.4
O=C(COC(=O)COc1ccccc1)NC1CCS(=O)(=O)C1 (stereo unspecified),12.0,0.5%,-0.5,-2.4,-21.9,-4.7
Cc1nn(-c2ccccc2)c2nc(Cl)c(C(=O)O)cc12,-7.4,0.7%,-0.7,-1.0,3.4,-7.7
CC1(C)O[C@@H]2[C@H](O1)[C@@H](COS(=O)(=O)O)O[C@H]2n1cnc2c(=O)[nH]cnc21,8.8,2.3%,-0.3,-1.9,16.1,-26.3
O=C(COc1ccc(C(=O)NCC2CCCO2)cc1)Nc1cccc(C(F)(F)F)c1 (stereo unspecified),7.6,0.3%,-0.3,4.0,5.5,-10.8
O=C(NCc1ccco1)c1ccc(COc2cc(Cl)ccc2Cl)cc1,2.5,-1.5%,3.4,-1.6,12.2,2.0
N#Cc1c(N)n(-c2ccc(N)cc2)c2nc3ccccc3nc12,-15.7,0.6%,1.5,-5.8,11.0,-4.3
CCn1c(C)nc2cc(C(=O)NNS(=O)(=O)c3ccc(C)cc3C)ccc21,3.8,3.2%[38.3 µM],0.3,-1.9,11.0,-8.6
CCCN(Cc1cc2cc(C)ccc2[nH]c1=O)C(=O)c1cccc(OC)c1,5.9,0.4%,2.1,0.3,19.5,-20.4

# The order is random; about 1% have a hit in one of these screens.
